Rango complex inh = Rango-importin beta binding inhibition | Q14974 | Rango CFP/YFP FRET sensor + importin beta, 45 min | Potency, µM (doses to about 92.2 µM), for inactives: at the top dose inhibition of complex formation | 340,000 compounds, 0.031% hits; active = rising FRET ratio curve, often small or poorly fitted; inconclusive = mostly compound fluorescence or quenching in the first reads; inactive = flat curves in all reads;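 further: potency means the concentration at half of the fitted maximal effect; 0% = DMSO wells and 100% = buffer wells lacking importin beta; nearly all actives have a fitted effect of over 15% in size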
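Inhibition scored from the CFP 486 nm/YFP 530 nm FRET ratio 45 min after adding 0.125 microM importin beta to 50 nM Rango biosensor preincubated 5 min with compound (room temperature, PBS with DTT, Tween-20, BSA). No-importin wells as positive control.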
Rango dissoc inh = inhibition of RanGTP-driven Rango-importin beta dissociation. O95149+P62826. Biochemical FRET Rango-importin beta, RanGTP-induced dissociation. Potency, µM (highest dose often 46.1 µM), inactives show at the top dose activity change, negative = inhibition. 340,000 compounds, 0.071% hits; active means falling FRET ratio curve, often poorly fitted, with flat reads before Ran was added; inconclusive means other falling curves, or compound fluorescence or quenching; inactive means flat or rising ratio curve;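 further: potency means the concentration at half of the fitted maximal effect; % of control where 0% means no effect; nearly all actives have a fitted effect of over 45% in size; -100% = wells without RanGTP and RCC1; the record marks most hits as doubtful in a second field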
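Two FRET readings bracket the reaction: one 5 min after compound meets Rango–importin beta, another 45 min after RanGTP-RCC1 (0.6 uM Ran, 0.2 uM RCC1, 2 mM GTP) is added. Only the second defines inhibition.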
miR-21 reporter = miR-21 reporter, rising signal | HeLa miR-21 FLuc reporter, luciferase, 48 h | Potency, µM (series often up to 38.3 µM), inactives show top-dose reporter change, positive = more light | 340,000 tested, under 10 active; active = well fitted rising curve with a large enough effect; inconclusive = small, poorly fitted or top-dose-only effect; inactive = no such curve, though single readings can be large or run the other way;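 further: % of control where 0% means no effect; miR-21 action dims this reporter so a rising signal means less miR-21 action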
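HeLa cells endogenously expressing miR-21, stably carrying CMV-driven firefly luciferase with a downstream miR-21 binding site, 2000 cells/well. Titrations up to approximately 40 uM, 48 hours; luciferase luminescence read.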
GLA inh pH 4.5 = blocks human alpha-galactosidase A at pH 4.5. P06280. purified enzyme, 4-MU-alpha-Gal fluorescence, pH 4.5. activity change, negative = inhibition, % at 105 µM. 230,000 tested, under 10 active; inconclusive = small, poorly fitted or top-dose-only inhibition, or a rising curve; inactive = flat fitted curve, though single readings scatter; no compound was filed as active;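 further: 0% = full activity with enzyme and -100% = basal without enzyme; dose as in the result columns while the protocol names 77 µM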
Target sequence (P06280 whole entry, looked up): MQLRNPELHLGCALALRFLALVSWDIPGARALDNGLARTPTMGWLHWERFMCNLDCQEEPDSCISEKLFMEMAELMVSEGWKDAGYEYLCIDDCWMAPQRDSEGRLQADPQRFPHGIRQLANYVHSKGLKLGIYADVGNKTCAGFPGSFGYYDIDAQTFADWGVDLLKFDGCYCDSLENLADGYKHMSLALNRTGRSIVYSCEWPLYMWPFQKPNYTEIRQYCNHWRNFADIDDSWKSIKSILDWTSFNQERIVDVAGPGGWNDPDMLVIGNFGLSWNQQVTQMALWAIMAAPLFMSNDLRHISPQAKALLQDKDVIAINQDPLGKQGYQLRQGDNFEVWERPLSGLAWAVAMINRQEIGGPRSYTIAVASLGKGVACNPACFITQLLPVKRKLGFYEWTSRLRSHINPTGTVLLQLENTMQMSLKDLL
* hit, by the source's call; ? = inconclusive; nt = no result given; [ ] = dose if it differs, or a comment. Not all compounds are listed, so the mix of outcomes need not match the whole.

A first look (six entries):
Rango complex inh | Rango dissoc inh | miR-21 reporter | GLA inh pH 4.5 | molecule
-1.6% | 8% | -68% | 4 | CN(C)CCNC(=O)c1cc2c(s1)-c1ccccc1OC2
0.3% | -4% | -1% | nt | NS(=O)(=O)c1ccc(NC(=O)CSc2nc3c(c(=O)[nH]2)CCCC3)cc1
-3.9% | 3% | nt | nt | CC(OC(=O)Cn1cnc2c1c(=O)n(C)c(=O)n2C)C(=O)NC(C)c1ccc(Cl)cc1Cl (centres undefined)
-2.5% | -11% | nt | nt | ONC(=NCc1ccccc1)c1ccccc1
0.1% | 2% | nt | nt | COc1cccc(NC(=O)CN2C(=O)NC(CCc3ccccc3)C2=O)c1 (centres undefined)
-1.9% | -11% | -6% | -3 | Cn1c(C(=O)NCc2cccnc2)cc2sccc21

Main list, repeating the preview:
Rango complex inh | Rango dissoc inh | miR-21 reporter | GLA inh pH 4.5 | molecule
-1.6% | 8% | -68% | 4 | CN(C)CCNC(=O)c1cc2c(s1)-c1ccccc1OC2
0.3% | -4% | -1% | nt | NS(=O)(=O)c1ccc(NC(=O)CSc2nc3c(c(=O)[nH]2)CCCC3)cc1
-3.9% | 3% | nt | nt | CC(OC(=O)Cn1cnc2c1c(=O)n(C)c(=O)n2C)C(=O)NC(C)c1ccc(Cl)cc1Cl (centres undefined)
-2.5% | -11% | nt | nt | ONC(=NCc1ccccc1)c1ccccc1
0.1% | 2% | nt | nt | COc1cccc(NC(=O)CN2C(=O)NC(CCc3ccccc3)C2=O)c1 (centres undefined)
-1.9% | -11% | -6% | -3 | Cn1c(C(=O)NCc2cccnc2)cc2sccc21
0.2% | -7% | 1% | 2 | CCN(CCCNC(=O)C1CCN(S(=O)(=O)N2CCOCC2)CC1)c1cccc(C)c1
? | -22% | 1% | 2 | FC(F)(F)c1cc(-c2ccco2)nc(NCc2cccs2)n1
? | 1% | 3% | 3 | CCOc1ccc(CN2CCCC(CNC(=O)c3ccc(F)cc3)C2)cc1CO (centres undefined)
3.6% | 8% | -3% | 3 | CC1CN(C(=O)CCn2c(=O)oc3ccccc32)CC(C)O1 (centres undefined)
0.2% | -17% | nt | nt | CCOc1ccc(C(=O)NNC(=O)CN2C(=O)C3CC=CCC3C2=O)cc1OC (centres undefined)
1.5% | -19% | 1% | 3 | Cc1oc(-c2cccc(F)c2)nc1CN1CCCCC1CCc1ccccn1 (centres undefined)
-7.4% | 1% | -1% | 4 | CC(C)NC(=O)CC(=O)N/N=C/c1c(F)cccc1Cl
1.4% | -10% | 3% | nt | CC(C)OCCCN1CC(=O)N2C(c3ccccc3)c3[nH]c4ccccc4c3C[C@H]2C1=O (some centres undefined)
1.5% | -21% | -23% | -8 | Cn1nc(C(F)(F)F)cc1-c1ccc(/C=C(\C#N)C(=O)c2cccc(C(F)(F)F)c2)s1
0.0% | 4% | -4% | -8 | Cc1ccc(OCC(O)CN2CC3(C)CC2CC(C)(C)C3)cc1 (centres undefined)
-0.5% | 17% | nt | nt | Cc1ccc(NC(=O)CN(C(=O)N2CCN(C)CC2)S(=O)(=O)c2ccc(C)cc2)cc1
-6.2% | -18% | nt | nt | COc1ccc(NC(=O)CNc2ccccc2C(C)=O)cc1S(=O)(=O)N1CCOCC1
-0.7% | 11% | nt | nt | Cc1cccnc1NC(=O)C1CCN(S(=O)(=O)c2ccc3ccccc3c2)CC1
-4.0% | 0% | 23% | 9[21.1 µM] | COCCOC(=O)c1[nH]c2c(c1C)C(=O)CC(c1cccs1)C2 (centres undefined)
3.7% | 9% | -1% | -2 | CC(C)C[C@H](N)c1cn([C@@H](CCCCN)C(=O)N2CCNCC2)nn1
-1.5% | -7% | -21% | -2 | COc1ccc(N2CCN(c3cc(C)c4ccc(O)cc4n3)CC2)cc1
-0.1% | -10% | 0% | -4 | CC(C)(C)C(=O)c1cn(CC(=O)O)c2ccccc12
-1.4% | -5% | -30% | 4 | O=C(CSc1ccc(F)cc1)NCCSc1ccccc1
0.4% | 4% | -1% | 2 | O=C(CSc1n[nH]c(-c2ccccc2)n1)NC(=O)NCc1ccco1
-2.8% | -16% | nt | nt | O=C(COC(=O)CNC(=O)c1ccccc1F)NCCNC(=O)COC(=O)CNC(=O)c1ccccc1F
-1.6% | 5% | 7% | -2 | Cc1ccc(CNC(=O)CNC(=S)N(Cc2ccccc2)Cc2cccnc2)cc1
-1.4% | -2% | -1% | 0 | O=C(CSc1ccc2c(c1)OCCO2)Nc1ccc(N2CCOCC2)cc1
0.8% | 43% | 4% | 3 | CCOc1cc(C(=O)Nc2ccccc2N2CCN(S(C)(=O)=O)CC2)cc(OCC)c1OCC
0.9% | 1% | 1% | 4 | CC1Cc2ccccc2N1C(=O)CNCCCN(C)C (centres undefined)
4.1% | 5% | -1% | nt | O=C(COC(=O)c1ccc(O)cc1)NC1CCCC1
-3.7% | ? | -51% | -7 | CCS(=O)(=O)N1CCCC(c2nc(-c3cccc(OC)c3)no2)C1 (centres undefined)
3.7% | 10% | -2% | nt | NS(=O)(=O)c1ccc(CCNC(=O)CNC(=O)c2ccc(Oc3ccccc3)cc2)cc1
3.2% | -11% | nt | nt | O=C(COC(=O)CC1CCCC1)Nc1cccc(F)c1
-1.9% | 0% | -6% | 4 | CC1CCN(CCOCCOc2ccccc2Br)CC1
0.1% | 6% | -15% | 15 | O=C(COc1cccc(-n2cnnn2)c1)NCCC1=CCCCC1
0.1% | 0% | -2% | -3 | O=c1nc2n(c3ncccc13)CCCCC2
-2.6% | 2% | -2% | -6 | COc1ccc(N2CCN(C(=O)C3(C)CC3(Cl)Cl)CC2)cc1 (centres undefined)
1.2% | 17% | -2% | nt | CCc1ccccc1NC(=O)NCc1ccc2c(c1)OCO2
4.4% | 18% | -10% | -27 | O=S(=O)(NC1CCCC1)c1ccc(Br)s1
1.8% | -12% | -60% | 1 | COc1ccc(/C=C/C(=O)c2ccc[nH]2)cc1OC
0.0% | -12% | nt | nt | CC(C)c1nc(SCC(=O)Nc2cccc3ccccc23)n[nH]1
1.1% | 2% | 2% | 9 | CC(=O)c1cccc(N2C(=O)Nc3ccccc3N2O)c1
-0.4% | 10% | 0% | 11 | CC1(C)CC(=O)C/C(=N/NC(=O)C2CCN(S(=O)(=O)c3cccs3)CC2)C1
0.9% | -18% | nt | nt | CCCc1cc(=O)[nH]c(SCC(=O)N2CCc3cc(OC)c(OC)cc3C2)n1
0.8% | -4% | nt | nt | O=C(COC(=O)/C=C/c1cccc(C(F)(F)F)c1)NCc1cccs1
2.9% | -12% | 15% | 1 | CCN(CC)C(=O)N1c2ccccc2CC(N(CC)CC)c2ccccc21 (centres undefined)
4.6% | 6% | -2% | nt | CCCCOP(=O)(c1ccc(N(C)C)cc1)C(O)c1ccc(OC)cc1 (centres undefined)
2.6% | 0% | 1% | 5 | NS(=O)(=O)c1cccc(NC(=O)CSc2nc3ccccc3c(=O)n2CCCN2CCOCC2)c1
-0.7% | -8% | -6% | -18 | NNC(=O)CSCc1ccc(Cl)cc1Cl
2.8% | 1% | -14% | 6 | O=S(=O)(c1ccc(Br)s1)N1CCN(c2ccccn2)CC1
-1.7% | -2% | -4% | -4 | CCOC(=O)C1CCN(C(=O)Nc2ccc(OCc3ccccc3)cc2)CC1
4.7% | 2% | nt | nt | O=C(CSc1nc(C2CC2)nc2ccccc12)N1CCc2ccccc21
-4.6% | -5% | 0% | nt | COc1ccccc1N(CC(=O)NCc1ccco1)S(=O)(=O)c1ccc(C)cc1
1.4% | 0% | -21% | -2 | Cc1cc(Oc2ccccc2)nc(-c2ccccc2O)n1
3.9% | 14% | nt | nt | Cc1ccccc1SCC(=O)NCC(c1ccc(F)cc1)N1CCOCC1 (centres undefined)
1.0% | -10% | nt | nt | Cc1ccc(S(=O)(=O)N(C)C)cc1NC(=O)c1cc(S(=O)(=O)N2CCCCC2)ccc1N1CCOCC1
-2.3% | 13% | nt | nt | O=C1c2ccccc2S(=O)(=O)c2cc(C(=O)N3CCC(C(=O)N4CCCCC4)CC3)ccc21
-3.0% | 15% | nt | nt | CC(C)(C)N(Cc1ccccc1)C(=O)COC(=O)c1ccc(N2CCCC2=O)cc1
4.1% | 2% | -13% | nt | O=S(=O)(NCc1ccc2c(c1)OCO2)c1ccc(Cl)s1

The listing continues.
Rango complex inh | Rango dissoc inh | miR-21 reporter | GLA inh pH 4.5 | molecule
2.3% | -13% | 0% | nt | CC(=O)Nc1ccc(NC(=O)CNC(=O)c2cccc(C)c2)cc1
2.6% | 4% | -25% | -1 | CC1CCc2c(C(=O)NCCN3CCOCC3)csc2C1 (centres undefined)
2.1% | 0% | -10% | 6 | CCC(C)c1ccc(NC(=S)NCc2cccnc2)cc1 (centres undefined)
-1.1% | 9% | -1% | -9 | CCN1CCc2nc3ccccc3c(C(=O)Nc3ccc(NC(C)=O)cc3)c2C1
-0.1% | 22% | nt | nt | CCOC(=O)C1=C(COC(=O)COc2ccccc2OCC)NC(=O)NC1C (centres undefined)
1.3% | 10% | 14% | nt | Cc1cc(OCc2cc(C(=O)N3CCC(Oc4cccnc4)CC3)no2)cc(C)c1Cl
-0.1% | -2% | nt | nt | COc1ccc(N2C(=O)N3[C@@H]4c5ccccc5OC[C@@H]4[C@@H](c4ccccc4)[C@@]3(C)C2=O)cc1
4.5% | 3% | 4% | nt | COC(=O)c1cc(S(=O)(=O)N2CCN(C3CCCCC3)CC2)c[nH]1
1.1% | 3% | nt | nt | Cc1ccc(C(=O)NC2CC(C)(C)NC(C)(C)C2)cc1S(=O)(=O)N1CCOCC1
-0.2% | -1% | 4% | -5 | O=C1NCCC/C1=N/Nc1ccc(F)cc1
-0.3% | -9% | -25% | 5 | CCN(Cc1nc(-c2cccc(Cl)c2)no1)CC1CCCO1 (centres undefined)
3.1% | 1% | 1% | 9 | O=C(CSCCO)Nc1nccs1
3.1% | 1% | nt | nt | CCN1C(=O)[C@H]2[C@@H](c3ccc(-c4ccc(F)cc4)c(OC)c3)N3CCC[C@@]3(C(=O)OC)[C@H]2C1=O
-1.8% | 1% | -8% | -5 | Cc1nc2sc(C(c3ccco3)N3CCC(Cc4ccccc4)CC3)c(O)n2n1 (centres undefined)
7.5% | -1% | -14% | -3 | Cc1cc(C(=O)COC(=O)C2=NNC(=O)CC2)c(C)n1-c1ccccc1
6.5% | 7% | 17% | 1 | CCOc1ccccc1-n1c(SCC(=O)Nc2nccs2)nnc1-c1ccoc1C
0.0% | -7% | 20% | -2 | COc1ccc(CN2CCN(C(=O)C3CCC(CNS(=O)(=O)c4ccc(C)cc4)CC3)CC2)c(OC)c1OC (centres undefined)
1.6% | 21% | 3% | nt | CCOc1ccc(NC(=O)CSc2ccc3nnc(-c4cccnc4)n3n2)cc1
-2.2% | -16% | 10% | 2 | COc1ccc(CCc2nnc(CCC(=O)N(C)Cc3ccnc4ccccc34)o2)cc1
0.4% | 3% | 13% | nt | COc1ccc(N(CC(=O)Nc2cccc(C(C)=O)c2)S(=O)(=O)c2ccc(NC(C)=O)cc2)cc1
2.6% | 27% | nt | nt | Cc1cc(=O)n2cn[nH]c2n1
0.9% | 4% | -13% | nt | S=c1[nH]c2ccccc2n1Cc1ccccc1
2.9% | 9% | 6% | nt | N=C1SCC(=O)N1c1ccc(Cl)cc1
-2.1% | -2% | 1% | -2 | CCOC(=O)COc1cc(N2C(=O)CSCC2=O)c(Cl)cc1Cl
-3.7% | -14% | -2% | -11 | C/C=C(\C)CN1CCN(c2ccccc2F)CC1
-5.1% | 15% | -1% | 4 | CC(CC#CCN1CCOCC1)OCCC#N (centres undefined)
0.0% | 12% | nt | nt | CCC1(c2ccccc2)NC(=O)N(CC(=O)Nc2ccc(N3CCOCC3)cc2)C1=O (centres undefined)
? | -3% | -40% | -3 | COc1ccc(NC(=O)/C=C/c2cccc(F)c2)cn1
1.8% | 1% | -51% | nt | O=C(Nc1cccc(F)c1)c1ccc2ncsc2c1
-1.6% | 0% | 29% | nt | Cc1onc(-c2c(F)cccc2Cl)c1C(=O)Nc1nnc(C(F)(F)F)s1
6.8% | 2% | -2% | 7 | COc1ccc(CCNc2ccc(C(CC(N)=O)NC(=O)Cc3cccc4ccccc34)cc2[N+](=O)[O-])cc1 (centres undefined)
-2.8% | 19% | nt | nt | O=C(COc1ccc(Cl)cc1)OCC(=O)N1CCOCC1
-3.0% | -13% | 11% | 3 | CCCCn1c(=S)[nH]c2cc(S(=O)(=O)N3CCCCC3)ccc21
-0.7% | 2% | 10% | 0 | CNC(=S)N(C)[C@H]1c2c(ccc3ccccc23)OC[C@H]1CO
